From PubChem BioAssay
quorum sensing: Vibrio cholerae quorum sensing activators, luminescence (AID 686977). one-dose luminescence at 50 µM unless noted; EC50 in µM for titrated hits. 9,400 tested, under 10 active. V. cholerae quorum sensing reporter, luminescence, 6 h; higher luminescence means a stronger effect; most inactives read 0;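 active = light above mean plus 3 SD and confirmed in a dose series; inconclusive = above that limit without a clear retest; inactive = below it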;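 also: raw light counts without normalisation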
* = called active by the depositor; ? = inconclusive; [ ] = dose if it differs, or a comment.

SMILES	quorum sensing
CC1C2CC(C(S(=O)(=O)N3CCOCC3)C2=O)C1(C)C (stereo not drawn)	40
FC(F)(F)c1cc(-c2cccs2)n[nH]1	40
Cc1ccc(-n2nnnc2SCC(=O)N2CC(=O)Nc3ccccc32)cc1	0
O=C(c1cc(-c2ccco2)on1)N1CCN(c2ccccc2)CC1	0
CCCCCCNS(=O)(=O)c1nc2nc(C)cc(C)n2n1	0
COc1cccc2c(=O)n(CC(=O)Nc3ccccc3F)ccc12	0
COc1cc(N)c(Cl)cc1C(=O)NC1CCN(Cc2ccccc2)CC1	320[10 µg/mL]
CCOC(=O)CSc1nnc(-c2c[nH]c3ccccc23)n1CC	0
CCCCCOC(=O)CSc1nc2c(c(=O)[nH]c(=O)n2C)n1Cc1ccc(Cl)cc1	0
CN(C)c1ccc(C(=O)Nc2nc3c(s2)CCCC3)cc1	0
O=C(O)C1CC(c2ccccc2F)=NO1 (stereo not drawn)	0
CC(C)CCNC(=O)c1nnc(Cc2ccc(Cl)cc2)o1	0
COc1ccccc1N(CC(=O)NCc1ccccn1)S(C)(=O)=O	0
Cc1cccc(-c2nc3ccccc3c3nncn23)c1	0
Cc1cccc(NC(=O)C2CCCN2S(=O)(=O)c2cccc3cccnc23)c1 (stereo not drawn)	?
C1=C(C(c2nnnn2C2CCCCC2)N2CCCCC2)COc2ccccc21 (stereo not drawn)	0
O=C(c1ccco1)c1cn(CC(=O)N2CCCc3ccccc32)c2ccccc12	120
Cc1ccc2[nH]c(=O)c(C(c3nnnn3CCc3ccccc3)N3CCOCC3)cc2c1 (stereo not drawn)	40
O=C(COc1ccc(S(=O)(=O)NC2CCCCC2)cc1Cl)NCc1cccnc1	0
COc1ccc(C(=O)Nc2sc3c(c2C(=O)NCc2ccco2)CCCC3)cc1OC	0
Cc1cc2oc(C(=O)N(Cc3ccccc3)C3CCS(=O)(=O)C3)cc(=O)c2cc1Cl (stereo not drawn)	0
O=[N+]([O-])c1cc(-c2cnc3ccccc3n2)ccc1Oc1ccc(F)cc1	40
O=C(CSc1cn(CCNC(=O)c2cccs2)c2ccccc12)NCC1CCCO1 (stereo not drawn)	40
Cc1nc(N2CCC(C)CC2)c2c(C)c(C(=O)O)sc2n1	?
COc1cccc2cc(C(=O)OC3CCN(C)CC3)c(=O)oc12	0
Cc1ccc(NC(=O)CCSc2nc(C)cc(C)n2)cc1	40
O=P(Cc1ccncc1)(c1ccccc1)c1ccccc1	0
O=C(C1CCN(S(=O)(=O)Cc2ccccc2)CC1)N1CCCc2ccccc21	0
Cc1c(NC(=O)C(C)N2C(=O)C3C4C=CC(C4)C3C2=O)c(=O)n(-c2ccccc2)n1C (stereo not drawn)	40
CN(C=C1C(=O)CC(C)(C)CC1=O)CCN1CCNCC1	0
CCCCn1nnc(NC(=O)c2ccc(-c3ccccc3)cc2)n1	40
Cc1cc(C)c(NC(=O)c2ccccc2N(C)S(C)(=O)=O)c(C)c1	40
CCOC(=O)Cc1csc(NC(=O)C2CCCN(S(=O)(=O)c3cnc[nH]3)C2)n1 (stereo not drawn)	80
C=C(C)Cn1c(N(CCO)Cc2ccccc2)nc2c1c(=O)[nH]c(=O)n2C	0
Cc1ccccc1-c1nc(S(=O)(=O)c2ccc(Cl)cc2)c(NCCN2CCOCC2)o1	0
O=C(CCCc1ccccc1)NCc1cn2ccsc2n1	0
CCc1ccc(C2CC(c3ccc(F)cc3)Nc3nc(N)nn32)cc1 (stereo not drawn)	40
CC(=O)N1CCc2cc(S(=O)(=O)CCC(=O)NCc3cccs3)ccc21	0
CN(CC(=O)O/N=C(\N)c1cccc([N+](=O)[O-])c1)S(=O)(=O)c1ccccc1	200
O=C(CSc1c[nH]c2ccccc12)NCC1CCCO1 (stereo not drawn)	0
O=C1CCc2cc(S(=O)(=O)N3CCC(C(=O)Nc4nccs4)CC3)ccc2N1	40
COC(=O)CNC(=O)CSc1nc(N)cc(=O)[nH]1	0
CCCc1nnc(NC(=O)NCCN2C(=O)C3C4C=CC(C4)C3C2=O)s1 (stereo not drawn)	0
CCCCC(=O)Nc1sc2c(c1-c1nc3ccccc3s1)CCN(C(C)=O)C2	40
CCNC(=O)OCC(CC)NC(=O)OCC(C)C (stereo not drawn)	0
O=C(OCc1ccccc1)c1cccc(-c2nnn(Cc3ccccc3)n2)c1	280
CC(CN1CCCCC1)OC(=O)C1c2ccccc2Oc2ccccc21 (stereo not drawn)	0
Cc1ccccc1N1CC(=O)N(c2ccccc2C)CC1=O	40
C=CCN1C(=O)CN=C1Nc1cc(C)cc(C)c1	200
c1csc(Cn2c(-c3cccs3)nc3ccccc32)c1	280
CC1Cc2nc(SCC(N)=O)n(C)c(=O)c2S1 (stereo not drawn)	0
Cc1cc(C)cc(OCC(=O)Nc2cccc(-c3nc4ncccc4o3)c2)c1	0
Cc1ccc(C(=O)NCCn2cc(SCC(=O)Nc3cc(C)on3)c3ccccc32)cc1	0
O=C(CN1C(=O)C2CC=CCC2C1=O)NC1=NCCS1 (stereo not drawn)	40
CC(C)NC(=O)CSc1nnc(-c2ccco2)n1N	40
CC(C)COc1ccc(-c2nnn(CC(=O)N3CCCC3)n2)cc1	0
O=C(Cc1cccc2ccccc12)Nc1nc2ccccc2[nH]1	0
CC1CC(C)CN(CCCNC(=O)Cn2ncc3c(=O)oc4ccccc4c32)C1 (stereo not drawn)	0
CCCC(=O)c1ccc(N2CCN(C(=O)c3ccc(Br)cc3)CC2)c(F)c1	40
COC(=O)c1cc(Br)c(=O)n(CC(C)C)c1	680
(more compounds)
SMILES	quorum sensing
Cc1ccc(NC(=O)CCNS(=O)(=O)c2ccc3c(c2)oc(=O)n3C)c(C)c1	0
COC(=O)CSc1nnc(CNS(=O)(=O)c2ccc(Cl)cc2)n1C	40
CCOC(=O)c1c(NC(=O)CSc2nnnn2-c2ccc3c(c2)OCO3)sc(C)c1C	0
Cc1ccccc1NC(=O)CSc1nnc(Cc2cccn2C)n1-c1ccc(F)cc1	240
CCOC(=O)N1CCC(Nc2c(OCC)c(=O)c2=O)CC1	0
CCCOc1ccc(CNC(=S)N/N=C/c2ccc([N+](=O)[O-])cc2)cc1	0
CC1CCN(C(=O)CNC(=O)Cn2ccc3ccccc3c2=O)CC1	0
COc1cc(NC(=O)C2CCC(CNc3c(N4CCCCC4)c(=O)c3=O)CC2)cc(OC)c1 (stereo not drawn)	0
COC(=O)c1cn(C(=O)c2ccccc2F)nc1N	80
Cc1c(Cl)cccc1NC(=O)CCN1CCCCC1	200
Cc1ccc(S(=O)(=O)C2(C(=O)Nc3ccc4c(c3)OCO4)CC2)cc1	0
O=C(Nc1ccccc1-c1nc2ccccc2s1)c1ccco1	?
CCOC(=O)c1nc2ccccc2c(=O)n1-c1ccc(C)cc1	40
CCOCCCNC(=O)C1CCC(CNS(=O)(=O)c2ccc(F)cc2)CC1 (stereo not drawn)	0
Cc1ccc(C(=O)N(Cc2nc(-c3ccc(C)cc3)no2)C(C)C)cc1	0
CCOc1ccc(C(=O)N2CCCC2)cc1OC	40
Cc1cc(C)cc(-n2ccnc2SCC(=O)Nc2nccs2)c1	0
CN(C)CCCOc1nn(Cc2ccccc2)c2ccccc12	0[10 µg/mL]
CCN1C[C@]2(C)CC[C@H](O)[C@]34C1[C@H](C[C@H]23)[C@@]1(O)C[C@H](OC)[C@H]2C[C@@H]4[C@@H]1C2O (stereo partly drawn)	0[10 µg/mL]
CC(=O)N[C@@H](CC(=O)N[C@H](CCC(=O)O)C(=O)O)C(=O)O	0[10 µg/mL]
COc1cc(OC)cc(C(=O)NCCSCc2ccco2)c1	40
CCN(Cc1ccccc1)C(=O)COc1cc(=O)n(CC)c2ccccc12	0
COc1ccc(CCNC(=O)c2cc3ccccn3n2)c(OC)c1OC	40
CSCCC(NS(=O)(=O)c1ccc2ccccc2c1)C(=O)O (stereo not drawn)	320
CC1=C(C(=O)Nc2ccc(Br)cc2)C(c2ccco2)NC(=O)N1 (stereo not drawn)	0
Cc1cc(C)c(OCCOCCN2CCNCC2)c(C)c1	0
Cc1cccc(NC(=O)CNc2cc(C)ccc2C)c1	40
COC1=CC(=O)O[C@@H](/C=C/c2ccccc2)C1	0[10 µg/mL]
O=C(CCCCCn1c(=O)[nH]c2ccsc2c1=O)N1CCN(C2CCCCC2)CC1	40
CS(=O)(=O)NCCSCc1c(F)cccc1Cl	0
O=C(c1ccc(S(=O)(=O)N2CCCC2)cc1)N1CCCc2ccccc21	0
CCNCC(O)c1cccc(O)c1 (stereo not drawn)	0[10 µg/mL]
O=C(Cn1c(-c2ccc(Cl)cc2)noc1=O)N1CCN(c2ccccc2F)CC1	40
CC(C)Cn1c(CN(C)Cc2ccccc2)nc2c1c(=O)n(C)c(=O)n2C	0
CN(CC(=O)NCCc1ccccc1)S(=O)(=O)c1cccs1	?
CN(C)CCN1C(=O)C(O)=C(C(=O)c2cc3ccccc3o2)C1c1ccc(N(C)C)cc1 (stereo not drawn)	40
CCc1nnc(NC(=O)CSc2nnc(Cc3cccn3C)n2CCOC)s1	?
Cc1cc(NS(=O)(=O)c2ccc(NC(=O)NC(C)(C(F)(F)F)C(F)(F)F)cc2)no1	40
COc1ccc(NS(=O)(=O)c2ccc(SC)cc2)c(OC)c1	40
NS(=O)(=O)c1cc(C2(O)NC(=O)c3ccccc32)ccc1Cl (stereo not drawn)	0[10 µg/mL]
COc1ccc(C2NC(=O)NC(C)=C2C(=O)Nc2cccc(C)c2C)cc1 (stereo not drawn)	0
C[C@H](N)c1nnc(SCC(=O)c2ccc(Cl)cc2)o1	0
CCC(c1nnnn1C1CCCC1)N(Cc1cccs1)Cc1cc2cccc(C)c2[nH]c1=O (stereo not drawn)	0
CCOc1cc(/C=C2/C(=O)N(c3ccccc3)N=C2C)ccc1OC(=O)c1cccs1	0
CC(=O)C1CCN(Cc2ccccc2)CC1	0

Some of the entries so far, field by field:
CN(CC(=O)NCCc1ccccc1)S(=O)(=O)c1cccs1
  quorum sensing: ?

CN(C)CCN1C(=O)C(O)=C(C(=O)c2cc3ccccc3o2)C1c1ccc(N(C)C)cc1 (stereo not drawn)
  quorum sensing: 40

CCc1nnc(NC(=O)CSc2nnc(Cc3cccn3C)n2CCOC)s1
  quorum sensing: ?

Cc1cc(NS(=O)(=O)c2ccc(NC(=O)NC(C)(C(F)(F)F)C(F)(F)F)cc2)no1
  quorum sensing: 40

Quoted at random: 6 records from the list.
SMILES	quorum sensing
Cc1ccccc1NC(=O)CSc1nnc(Cc2cccn2C)n1-c1ccc(F)cc1	240
CS(=O)(=O)NCCSCc1c(F)cccc1Cl	0
Cc1cccc(NC(=O)CNc2cc(C)ccc2C)c1	40
Cc1ccc(NC(=O)CCSc2nc(C)cc(C)n2)cc1	40
COC(=O)CSc1nnc(CNS(=O)(=O)c2ccc(Cl)cc2)n1C	40
O=C(c1ccc(S(=O)(=O)N2CCCC2)cc1)N1CCCc2ccccc21	0

Additional entries
SMILES	quorum sensing
CCCCCC(=O)N/N=C/c1cccs1	?
CSC1=NCCN1C(=O)COc1ccc2ccccc2c1	80
O=C(CS(=O)(=O)c1c[nH]c2ccccc12)NC1CCCCC1	40
COC(=O)Oc1ccc(/C=N/NC(=O)CSCc2ccccc2Br)cc1OC	0
O=C(CSc1c[nH]c2ccccc12)NCc1ccc2c(c1)OCO2	40
Cc1nc2sc(C)c(C)c2c(=O)[nH]1	0
O=c1cc(-c2ccccc2)[nH]c2ccccc12	0
COC(=O)c1oc2ccc(Br)cc2c1NC(=O)CCCN1C(=O)c2ccccc2C1=O	0
COc1cccc(Cn2nnc(C(=O)Nc3ccc(C)cc3)c2N)c1	0
COc1ccc2c(c1)C(C1=C(O)CC(C)(C)CC1=O)C1=C(CC(C)(C)CC1=O)O2 (stereo not drawn)	40
COc1cccc(N2CC(O)=C(c3nc4ccccc4c(=O)[nH]3)C2=N)c1	0
COC(=O)C1C(c2ccc(Cl)cc2)NC(c2ccc(Cl)cc2)C(C(=O)OC)S1(=O)=O (stereo not drawn)	40
COC(=O)C1=C(C)N=C2SC(C)C(=O)N2C1/C=C/c1ccccc1OC (stereo not drawn)	0
Cc1cccc(N2CCN(S(=O)(=O)c3cnc[nH]3)CC2)c1C	?
Cc1ccc(-c2c(C(=O)N3CCOCC3)oc(=O)c3ccccc23)cc1	0
O=C1Nc2ccccc2OC1CC(=O)N1CCOCC1 (stereo not drawn)	0
CC1CCN(CCCn2c(=S)[nH]c3ccccc3c2=O)CC1	0
O=C(OCc1nnc(-c2ccccc2)o1)c1cc(=O)c2ccccc2o1	40
COc1ccc(-n2c(NCCN(C)C)nc3sc4c(c3c2=O)CCCCC4)cc1	40
Cc1cccc(NC(=O)CN2C(=O)COc3ccc(Cl)cc32)c1C	0
NC(N)=NC(N)=NCCc1ccccc1	0[10 µg/mL]
COc1cccc(C(C(=O)NC(C)(C)C)N(C(=O)CCC(=O)Nc2cc(C)on2)C2CC2)c1OC (stereo not drawn)	0
Nc1c(C(=O)c2ccc(Br)s2)oc2ccccc12	0
Cc1c(NS(=O)(=O)c2ccc3c(c2)CCN3C(=O)C2CC2)c(=O)n(-c2ccccc2)n1C	0
O=C(O)CCc1ccc(-c2ccccc2)n1CC(=O)O	320
CCc1nc2ccccc2c(NC(=O)CN2CCC(C)CC2)c1C	0
CC(C)c1nc(SCC(=O)Nc2ccc3c(c2)OCCO3)c2c(=O)n(C)c(=O)n(C)c2n1	0
COc1ccc(Cl)cc1C(=O)NCCc1ccc(S(=O)(=O)NC(=O)NC2CCCCC2)cc1	0[10 µg/mL]
COc1ccc(-n2c(Cc3cccn3C)nnc2SCC(=O)Nc2cccc(F)c2)cc1	40
Brc1ccc(-c2noc(COc3ccc4c(c3)CCC4)n2)o1	0
CC(C)CCNC(=O)[C@@H](NC(=O)c1c(F)cccc1F)C(C)C	0
O=c1[nH]nc(Cc2ccccc2)c2ccccc12	0

An excerpt, so the mix of outcomes need not match the whole.
